Source: PubChem
Rango-impB inh = inhibitors of Rango-importin beta complex formation | Q14974 | Rango CFP/YFP FRET sensor + importin beta, 45 min | Potency, µM (highest dose often 92.2 µM), for the others: at the top dose inhibition of complex formation | hit rate 0.031% among 340,000 | AID 540263; active = rising FRET ratio curve, often small or poorly fitted; inconclusive = mostly compound fluorescence or quenching in the first reads; inactive = flat curves in all reads;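 further: potency means the concentration at half of the fitted maximal effect; 0% = DMSO wells and 100% = buffer wells lacking importin beta; nearly all actives have a fitted effect of over 15% in size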
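FRET biosensor Rango (snurportin 1 IBB between N-terminal EYFP and C-terminal Cerulean), 50 nM in PBS/1 mM DTT/0.02% Tween-20/0.1% BSA, preincubated 5 min RT with compound; 0.125 microM importin beta added, 45 min RT, CFP/YFP FRET ratio read.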
Rango dissoc inh = inhibition of RanGTP-driven Rango-importin beta dissociation; O95149+P62826; Potency, µM (highest dose often 46.1 µM), without a hit: at the top dose activity change, negative = inhibition; hit rate 0.071% among 340,000; Biochemical FRET Rango-importin beta, RanGTP-induced dissociation; active means falling FRET ratio curve, often poorly fitted, with flat reads before Ran was added; inconclusive means other falling curves, or compound fluorescence or quenching; inactive means flat or rising ratio curve;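 further: potency means the concentration at half of the fitted maximal effect; % of control where 0% means no effect; nearly all actives have a fitted effect of over 45% in size; -100% = wells without RanGTP and RCC1; the record marks most hits as doubtful in a second field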
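Compounds preincubate 5 min with complex of recombinant Rango and importin beta in PBS with 1 mM DTT. Ran (0.6 uM) loaded with 2 mM GTP plus 0.2 uM RCC1 starts dissociation; FRET is recorded 45 min later.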
miR-21 reporter = raises the signal of a miR-21 reporter; Potency, µM (doses to about 38.3 µM), for the others: top-dose reporter change, positive = more light; AID 2288; HeLa miR-21 FLuc reporter, luciferase, 48 h; 340,000 tested, under 10 active; active = well fitted rising curve with a large enough effect; inconclusive = small, poorly fitted or top-dose-only effect; inactive = no such curve, though single readings can be large or run the other way;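 further: % of control where 0% means no effect; miR-21 action dims this reporter so a rising signal means less miR-21 action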
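HeLa cells endogenously expressing miR-21, stably carrying CMV-driven firefly luciferase with a downstream miR-21 binding site, 2000 cells/well. Titrations up to approximately 40 uM, 48 hours; luciferase luminescence read.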
GLA inh pH 4.5 = inhibitors of human alpha-galactosidase A at pH 4.5; P06280; purified enzyme, 4-MU-alpha-Gal fluorescence, pH 4.5; activity change, negative = inhibition, % at 105 µM; 230,000 tested, under 10 active; inconclusive = small, poorly fitted or top-dose-only inhibition, or a rising curve; inactive = flat fitted curve, though single readings scatter; no compound was filed as active;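 further: 0% = full activity with enzyme and -100% = basal without enzyme; dose as in the result columns while the protocol names 77 µM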
Target sequence (P06280 whole entry, looked up): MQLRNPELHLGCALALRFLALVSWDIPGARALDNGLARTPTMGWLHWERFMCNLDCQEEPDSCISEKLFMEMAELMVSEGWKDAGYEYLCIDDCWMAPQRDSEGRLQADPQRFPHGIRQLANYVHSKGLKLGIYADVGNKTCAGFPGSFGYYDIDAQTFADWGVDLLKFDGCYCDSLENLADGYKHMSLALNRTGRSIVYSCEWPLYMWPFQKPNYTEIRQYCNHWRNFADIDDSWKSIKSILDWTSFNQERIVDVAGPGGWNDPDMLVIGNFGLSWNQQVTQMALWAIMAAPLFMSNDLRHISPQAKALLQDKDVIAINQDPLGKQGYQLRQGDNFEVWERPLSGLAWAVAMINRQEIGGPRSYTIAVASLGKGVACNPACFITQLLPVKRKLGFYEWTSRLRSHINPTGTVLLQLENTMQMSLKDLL
* hit, by the source's call; ? = inconclusive; . = not tested or not shown; & = joins results of further samples. Only part of the results is shown; the hit share may differ from the screen's.

The first three entries (preview)
SMILES	Rango-impB inh	Rango dissoc inh	miR-21 reporter	GLA inh pH 4.5
CCCCC1=CC2=CC(=O)C(C)(OC(=O)CC)C(=O)C2=CN1Cc1ccc2c(c1)OCO2 (centres undefined)	?	?	-19%	7&-9
COc1cccc(Oc2nccc(N(C)C)c2C#N)c1	-2.4%	1%	-42%	3
COc1cc(C(=O)N2CCCCCCC2)ccc1OC1CCN(C(C)=O)CC1	-2.9%	1%	-24%	.

The list itself, repeating the preview:
SMILES	Rango-impB inh	Rango dissoc inh	miR-21 reporter	GLA inh pH 4.5
CCCCC1=CC2=CC(=O)C(C)(OC(=O)CC)C(=O)C2=CN1Cc1ccc2c(c1)OCO2 (centres undefined)	?	?	-19%	7&-9
COc1cccc(Oc2nccc(N(C)C)c2C#N)c1	-2.4%	1%	-42%	3
COc1cc(C(=O)N2CCCCCCC2)ccc1OC1CCN(C(C)=O)CC1	-2.9%	1%	-24%	.
COc1ccc(CC(=O)N[C@@H]2c3cc(OC)c(OC)cc3C[C@H]2O)cc1	-1.1%	3%	.	.
COc1ccc(/C(C)=N/NC(=O)CNC(=O)c2cccs2)cc1OC	9.0%	-4%	-6%	-6
FC(F)Oc1ccccc1NC(=S)Nc1cccc(Cl)c1Cl	0.3%	-12%	0%	-11
COc1ccc(Cl)cc1NC(=O)CSc1nc(N2CCOCC2)nc(N2CCOCC2)n1	-0.4%	1%	1%	.
CC(C)CC(=O)N1CCN(Cc2ccc(Br)cc2)CC1	-1.1%	-12%	2%	.
Cc1ccc(C)c(-n2cc(CN3CCN(C(=O)c4ncn[nH]4)CC3)c(-c3ccccc3)n2)c1	-0.1%	-7%	0%	0
COc1ccc(/C=C2\CCCC3C2=NN(C(=O)c2ccco2)C3c2ccc(OC)c(OC)c2)cc1OC (centres undefined)	-2.9%	0%	-15%	22
COc1cc(NC(=S)NC(=O)CC(C)C)ccc1NC(=O)c1cc2ccccc2o1	-0.7%	2%	0%	12
Nc1ccc2c(c1)ncn2CCCn1cnc2cc(N)ccc21	-3.2%	0%	-1%	-4

6 records picked at random from the list so far:
SMILES	Rango-impB inh	Rango dissoc inh	miR-21 reporter	GLA inh pH 4.5
CCCCC1=CC2=CC(=O)C(C)(OC(=O)CC)C(=O)C2=CN1Cc1ccc2c(c1)OCO2 (centres undefined)	?	?	-19%	7&-9
COc1cccc(Oc2nccc(N(C)C)c2C#N)c1	-2.4%	1%	-42%	3
FC(F)Oc1ccccc1NC(=S)Nc1cccc(Cl)c1Cl	0.3%	-12%	0%	-11
COc1ccc(CC(=O)N[C@@H]2c3cc(OC)c(OC)cc3C[C@H]2O)cc1	-1.1%	3%	.	.
COc1ccc(/C(C)=N/NC(=O)CNC(=O)c2cccs2)cc1OC	9.0%	-4%	-6%	-6
CC(C)CC(=O)N1CCN(Cc2ccc(Br)cc2)CC1	-1.1%	-12%	2%	.

(continued)
SMILES	Rango-impB inh	Rango dissoc inh	miR-21 reporter	GLA inh pH 4.5
O=C(COC(=O)C12CC3CC(CC(C3)C1)C2)NCCCc1ccccc1	-0.2%	-19%	1%	5
CC(=O)c1c(O)cc(=O)n(-c2ccccc2)c1-c1ccc(C)cc1	3.7%	-12%	0%	5
CCOC(=O)CSc1nc2ccccc2c(=O)[nH]1	0.5%	11%	0%	4
CCOC(=O)C1CCN(C(=O)c2oc3ccc(S(=O)(=O)N4CC(C)CC(C)C4)cc3c2C)CC1 (centres undefined)	-2.4%	-11%	10%	-13
COc1cc(NC(=O)c2c(OC)cccc2OC)ccc1NC(=O)c1cc2ccccc2o1	0.0%	0%	-60%	.
O=C1CCCc2nn(-c3ccccc3)nc21	8.0%	3%	-44%	4
CCOC(=O)C(C)NC(=O)c1cn(-c2ccc(OC)cc2)c(=O)c2ccccc12 (centres undefined)	-1.1%	8%	3%	.
CC1(C)OC(=O)C(=NNc2ccc(Br)cc2)C(=O)O1	4.9%	-7%	-22%	-9
COc1ccc(Br)cc1CN1CCN(c2ncccn2)CC1	-1.3%	0%	.	.
CCNc1ccc(S(=O)(=O)N(C)C)cc1NCC(=O)Nc1ccccc1Cl	-6.9%	2%	-1%	-20
O=C1CCCN1CCCNc1ncnc2c1[nH]c1ccccc12	-2.6%	-5%	-6%	-3
COCCCNC(=O)CNC(=O)c1nn(-c2ccc(OC)c(Cl)c2)c(=O)c2ccccc12	-1.0%	1%	3%	.

In the list so far, these have a furan ring, fused or not:
SMILES	Rango-impB inh	Rango dissoc inh	miR-21 reporter	GLA inh pH 4.5
COc1ccc(/C=C2\CCCC3C2=NN(C(=O)c2ccco2)C3c2ccc(OC)c(OC)c2)cc1OC (centres undefined)	-2.9%	0%	-15%	22
COc1cc(NC(=S)NC(=O)CC(C)C)ccc1NC(=O)c1cc2ccccc2o1	-0.7%	2%	0%	12
CCOC(=O)C1CCN(C(=O)c2oc3ccc(S(=O)(=O)N4CC(C)CC(C)C4)cc3c2C)CC1 (centres undefined)	-2.4%	-11%	10%	-13
COc1cc(NC(=O)c2c(OC)cccc2OC)ccc1NC(=O)c1cc2ccccc2o1	0.0%	0%	-60%	.

(further entries)
SMILES	Rango-impB inh	Rango dissoc inh	miR-21 reporter	GLA inh pH 4.5
COC(=O)C1(CC2CC(c3ccc(Cl)cc3)=NO2)CCN(C(=O)OC(C)(C)C)CC1 (centres undefined)	0.7%	13%	.	.
CCCC1(C(=O)OC)NC(c2ccco2)C2C(=O)N(C)C(=O)C21 (centres undefined)	-0.5%	-5%	-4%	8
COc1ccc(NC(=O)c2cccnc2Nc2ccccc2)cc1	-0.7%	-19%	-10%	-3
Cc1cnc(NC(=O)CCCSc2nc3ccccc3s2)s1	-0.2%	11%	-6%	2
c1ccc(-c2cc3c(NCC4COc5ccccc5O4)ncnc3s2)cc1 (centres undefined)	1.2%	-9%	6%	-7
O=C(Nc1ccc(-n2ccnc2P(=O)(O)c2ccccc2)cc1)c1ccccc1Br	?	-18%	-2%	5
CN(C(=O)COC(=O)CCCN1C(=O)c2cccc3cccc(c23)C1=O)C1CCS(=O)(=O)C1 (centres undefined)	-4.6%	1%	.	.
Cc1ccc(C)c(NC(=O)CCC(=O)NNC(=O)C(c2ccccc2)c2ccccc2)c1	-3.8%	2%	-7%	8
O=C1CC(/C=C/c2ccc([N+](=O)[O-])cc2)=Nc2ccccc2N1	3.0%	11%	-9%	-11
CCC(=O)N1N=C(c2ccccc2)CC1c1ccc([N+](=O)[O-])cc1 (centres undefined)	2.6%	-2%	-16%	13
Cn1cnnc1SCC(=O)N/N=C/c1ccc(OCC(N)=O)cc1	0.4%	-12%	0%	0
Cc1ccc(O)c(Nc2nc(-c3ccccc3)nc3ccccc23)c1	0.0%	-4%	-2%	.

Some of these compounds in order of the miR-21 reporter value, ascending:
SMILES	Rango-impB inh	Rango dissoc inh	miR-21 reporter	GLA inh pH 4.5
Cc1ccc(C)c(NC(=O)CCC(=O)NNC(=O)C(c2ccccc2)c2ccccc2)c1	-3.8%	2%	-7%	8
Cc1cnc(NC(=O)CCCSc2nc3ccccc3s2)s1	-0.2%	11%	-6%	2
Cc1ccc(O)c(Nc2nc(-c3ccccc3)nc3ccccc23)c1	0.0%	-4%	-2%	.

Continuation:
SMILES	Rango-impB inh	Rango dissoc inh	miR-21 reporter	GLA inh pH 4.5
O=C(NC1CCCCC1)C(c1ccccn1)N(C(=O)c1csnn1)C1CC1 (centres undefined)	3.1%	12%	-4%	2
Cc1cc(C(=O)N2CCN(Cc3ccccc3)CC2)ccc1[N+](=O)[O-]	0.5%	-2%	4%	.
Cc1ccc(NS(=O)(=O)c2ccc(Cl)nc2)c(C)c1	4.4%	20%	.	.
O=C(CSc1nnc(COc2ccc(F)cc2)o1)N1c2ccccc2CCc2ccccc21	-1.1%	1%	26%	-8
COC(=O)c1c(NC(=O)CCl)sc(C(=O)N2CCOCC2)c1C	2.9%	0%	?	.
CC1(C)Cc2c(cnn2-c2ccc(F)cc2)C(NC(=O)CN2CCCC2=O)C1 (centres undefined)	1.0%	-10%	-7%	.
O=C(Nc1c(C(=O)N2CCN(c3ccccn3)CC2)oc2ccccc12)c1cccc([N+](=O)[O-])c1	-0.6%	5%	-6%	.
O=C(O)CCSc1nc2ccccc2c(=O)[nH]1	2.6%	4%	-17%	4
O=C(c1ccc(=O)[nH]n1)N1CCN(S(=O)(=O)c2ccc3ccccc3c2)CC1	1.8%	-8%	1%	-6
Cc1noc2c1C(c1ccc(N(C)C)cc1)C1=C(CC(C)(C)CC1=O)N2 (centres undefined)	2.1%	-7%	-1%	1
CC1c2[nH]c3ccccc3c2CCN1C(=O)Nc1ccccc1 (centres undefined)	-0.6%	41%	23%	0
CC(CN(C)C)CN1c2ccccc2Sc2ccccc21 (centres undefined)	-0.5%	13%	.	-6
O=C(COC(=O)C1COc2ccccc2O1)Nc1ccccc1OC(F)F (centres undefined)	3.5%	13%	.	.
COc1ccc(/C=N/Nc2ncc(C(F)(F)F)cc2Cl)cc1OC	-4.7%	-10%	-13%	3
CCCCN(C(=O)C(C)Oc1ccc(Br)cc1)c1c(N)n(CC(C)C)c(=O)[nH]c1=O (centres undefined)	-2.1%	-6%	.	.
CC(C)CCNC(=O)C(c1ccco1)N(Cc1cccs1)C(=O)Cn1nnc2ccccc21 (centres undefined)	-8.7%	-1%	-8%	-9
COc1cccc(NC(=O)CSc2nc3ccccc3nc2N2CCOCC2)c1	?	-5%	7%&13%	.
CC(C)(C)NC(=O)C1CC1(c1ccccc1)c1ccccc1 (centres undefined)	4.3%	-3%	17%	.
CCOc1ccc(N2C(=O)/C(=C/c3ccco3)N(C)C2=S)cc1	3.5%	1%	-3%	-1
COc1cc(/C=N/NC(=O)Cc2ccccc2)ccc1Oc1ccc([N+](=O)[O-])cc1[N+](=O)[O-]	-2.3%	15%	-8%	-24
CCOc1ccc(C(=S)N2CCCC2)cc1OCC	-0.2%	4%	-10%	.
CC(=O)c1c(C)[nH]c(C(=O)NNC(=O)c2ccc(Br)cc2)c1C	-2.6%	5%	.	.
Cc1cc(Cl)c(C)c(S(=O)(=O)N2CCN(CC(=O)N3CCOCC3)CC2)c1Cl	-0.4%	-9%	.	.
O=C(Nc1ccccn1)C1CCCN(c2ncnc3c2nc2n3CCCCC2)C1 (centres undefined)	-0.5%	-4%	12%	.
c1coc(-c2nc(-c3ccncc3)no2)c1	2.7%	1%	-43%	0
COc1ccccc1NC(=O)C1CCCN(c2nc(C)cc(C)n2)C1 (centres undefined)	-0.7%	-9%	-1%	-3
CCCCCCCCCSc1n[nH]c(N)n1	5.3%	0%	-4%	0
CCOc1ccc(NC(=O)N2CCC(n3nnc4cc(C)ccc43)CC2)cc1	0.8%	28%	-4%	-6
CCn1c(CNC(=O)C(C)(C)C)nc2ccccc21	0.5%	10%	1%	-1
COc1ccccc1OCc1ccc(C(=O)NCCN(C)C)o1	-1.9%	7%	-1%	-5
COc1ccc(NC(C)=O)cc1NC(=O)CN1CCN(c2ccccn2)CC1	4.0%	-11%	-6%	4
O=c1c2c3n(c(=S)nc2[nH]n1-c1ccccc1)CCCCC3	-4.2%	-7%	-5%	3
CN(C)C(=O)C(=O)c1cccn1-c1ccccc1C#N	4.0%	-4%	1%	4
O=c1c2[nH]c3ccc(F)cc3c2ncn1CCC1=CCCCC1	-0.7%	9%	-1%	-5
COC(=O)[C@@H]1C[C@@]2(O)[C@@H](O)[C@@H](O)[C@@H](O)C[C@H]2N1CC(c1ccccc1)c1ccccc1	0.9%	3%	-3%	10&-1
CCOc1ncccc1C(=O)Nc1ccc(C(=O)Nc2ccc(OC)cc2)cc1	-4.5%	-10%	.	.
